VDR inh: blocks the human vitamin D receptor; 400,000 tested, 0.93% active; Potency, µM, without a hit: max response, negative = inhibition, usual class: inhibitors; VDR-SRC2-3 peptide fluorescence polarization, 2 h; P11473; active = well fitted inhibition curve with a large enough effect; inconclusive = small, poorly fitted or top-dose-only effect, or another doubt; inactive = no such curve, though single readings can be large or run the other way; also: series mostly up to about 120 µM
Target sequence (P11473 whole entry, looked up): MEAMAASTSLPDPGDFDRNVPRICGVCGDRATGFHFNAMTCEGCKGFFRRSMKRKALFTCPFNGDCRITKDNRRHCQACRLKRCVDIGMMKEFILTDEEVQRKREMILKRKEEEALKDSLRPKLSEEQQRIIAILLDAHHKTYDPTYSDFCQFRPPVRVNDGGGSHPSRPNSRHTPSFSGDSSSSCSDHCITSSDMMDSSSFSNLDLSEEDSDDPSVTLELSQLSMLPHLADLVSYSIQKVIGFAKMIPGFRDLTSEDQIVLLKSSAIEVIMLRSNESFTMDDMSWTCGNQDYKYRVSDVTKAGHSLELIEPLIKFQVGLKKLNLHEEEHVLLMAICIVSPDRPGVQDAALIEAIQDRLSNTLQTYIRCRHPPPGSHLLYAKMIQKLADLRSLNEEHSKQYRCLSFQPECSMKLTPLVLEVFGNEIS
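Fluorescence polarization assay measuring small-molecule disruption of VDR binding to the coregulator peptide SRC2-3. Compounds were pin-transferred (23 nl) into the reagent mix and incubated 2 h at room temperature before reading.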
The depositor's hits bear a star; ? = inconclusive; & = joins results of further samples. % is scaled to controls: 0 for no effect and ±100 for the full control effect; potency is read from the fitted curve at half-maximal effect. A portion of the library. The share of hits here may be higher or lower than overall.

| SMILES | VDR inh |
| --- | --- |
| CC[C@H](C)[C@H](N)C1=N[C@H](C(=O)N[C@@H](CC(C)C)C(=O)N[C@@H](CCC(=O)O)C(=O)N[C@@H](C(=O)N[C@H]2CCCCNC(=O)[C@@H](CC(N)=O)NC(=O)[C@@H](CC(=O)O)NC(=O)[C@@H](Cc3cnc[nH]3)NC(=O)[C@@H](Cc3ccccc3)NC(=O)[C@@H]([C@@H](C)CC)NC(=O)[C@@H](CCCN)NC2=O)[C@@H](C)CC)CS1 | -13% |
| COC(=O)CC1C(C)(C)C(=O)C2CC3=C4CC(=O)OC(c5ccoc5)[C@]4(C)CCC3[C@@]1(C)C2=O (some centres undefined) | ? |
| O=C(CN(C(=O)CCC(=O)Nc1nccs1)c1ccc2c(c1)OCCO2)NCc1ccco1 | -6% |
| COc1ccc(-c2nc3cnc(OCc4ccccc4)nc3n(CCC#N)c2=O)cc1 | -13% |
| O=C(CCN1C(=O)/C(=C/c2ccccc2)SC1=S)NCCc1ccc(O)cc1 | ? |
| CC(C)Nc1oc(-c2cccc3ccccc23)nc1C#N | 0% |
| O=C(Nc1ccc(Br)cc1)c1cccc(S(=O)(=O)Nc2ccccn2)c1 | -17% |
| O=C(NCc1ccc(-n2cccc2)cc1)c1cccc(F)c1 | -4% |
| O=S(=O)(c1ccccc1)N1CCN=C1SCc1c(F)cccc1Cl | -7% |
| Cc1ccc(NC(=O)c2ccccc2Br)c(C(=O)c2ccccc2)c1 | 13% |
| O=C(CSc1cccc(C(F)(F)F)c1)NCc1ccccc1 | -9% |
| COc1cc(-c2nc3c[n+](CC(=O)c4ccccc4)ccc3n2C)cc(OC)c1OC | 8% |
| O=C(Nc1ccc(F)cc1F)c1cc(CN2CCOCC2)on1 | 10% |
| CN(C)c1cccc(C(=O)OCC(=O)NCC2CCCO2)c1 (centres undefined) | 7% |
| COc1cc(CNC2CCCC2)cc(Cl)c1OCc1ccc(F)cc1 | 10% |
| O=C1CN(CC(=O)NC2CCCc3ccccc32)CCN1 (centres undefined) | -6% |
| O=C(/C(=C(\[O-])c1ccccc1)[n+]1ccc2ccccc2c1)c1ccccc1 | 8% |
| COc1ccccc1N1CCN(C(=O)c2ccc(COc3cccc4c3OC(C)(C)C4)cc2)CC1 | 14% |
| O=C(CN1C(=O)S/C(=C\c2ccc(Cl)cc2)C1=O)NNC(=O)c1ccccc1O | -5% |
| CN(C)CCN(C(=O)CN1C(=O)c2ccccc2C1=O)c1nc2cc3c(cc2s1)OCCO3 | -9% |
| COc1cc(NC(=O)CCn2nc(C)cc2C)cc(OC)c1OC | 5% |
| CCc1ccc(C(=O)COC(=O)C(Cc2c[nH]c3ccccc23)NC(=O)c2ccc(CC)cc2)cc1 (centres undefined) | 2% |
| CCCCCCCC(=O)N/N=C/c1ccco1 | 2% |
| NC(=S)NN=Cc1nccc2ccccc12 | ? |
| CC(C)N(Cc1ccccc1)C(=O)COC(=O)CCC(=O)c1ccc(F)cc1 | 6% |
| COC(=O)c1c(C)oc2ccc(N(C(=O)c3ccncc3)S(=O)(=O)c3ccc4ccccc4c3)cc12 | -9% |
| Cc1ccc(CNC(=O)c2cn(C)c(=O)c3c2c2ccccc2n3C)o1 | -9% |
| O=C(CC(C(=O)O)c1ccc(Cl)cc1)c1ccccc1 (centres undefined) | 3% |
| CC1(C)CC(NC(=O)C(c2ccccc2)c2ccccc2)CC(C)(C)N1 | 10% |
| Cc1ccc(N2CC(c3nc4ccccc4n3C)CC2=O)cc1C (centres undefined) | -11% |
| CN1CCN(Cc2c(O)ccc3c(=O)c(Oc4ccccc4Cl)c(C(F)(F)F)oc23)CC1 | 7% |
| Cc1c(Cl)cccc1NC(=O)CSc1ncccc1C(=O)Oc1ccccc1Cl | 5% |
| O=C(Nc1ccc2c(c1)OCO2)N1CCN(c2ncc(C(F)(F)F)cc2Cl)CC1 | -1% |
| Cc1ccc(NC(=O)CN2C(=O)S/C(=C\c3ccc(C(=O)O)cc3)C2=O)cc1 | -13% |
| CCN(CC(=O)Nc1c(F)cccc1F)C(=O)CCSc1ccc(C)cc1 | -19% |
| COc1ccc(NC(=O)c2cccc(-n3cnnn3)c2)cc1 | 8% |
| COc1ccc(C(=O)NCCN2CCCC2)cc1[N+](=O)[O-] | -4% |
| Cc1ccccc1Cn1c(C(=O)O)c(CNCc2cccc(F)c2)c2ccccc21 | 4% |
| COCCOC(=O)C1=C(C)OC(N)=C(C#N)C1c1cc2cccc(C)c2nc1Cl (centres undefined) | -3% |
| CCOc1ccc(Br)cc1S(=O)(=O)NCc1ccncc1 | 4% |
| Cc1cc(C)cc(NC(=O)CSc2nc3c(cnn3-c3ccc(F)cc3)c(=O)[nH]2)c1 | -22% |
| CCOC(=O)c1cc(NC(=O)c2ccc(Cl)cc2)c(=O)oc1-c1ccccc1 | -15% |
| CCn1c(=O)c(C(=O)Nc2ccc(C(C)=O)cc2)nc2ccccc21 | 7% |
| Cc1c(NS(=O)(=O)c2ccccc2)cc(Cl)c(O)c1C | -8% |
| CC(C)(C)N(Cc1ccccc1)C(=O)COC(=O)c1ccc(Br)o1 | -21% |
| CCN(CC)c1ccc(C(=O)OCC(=O)N2CCN(c3ccccc3)CC2)cc1 | -9% |
| C/C(=N/NC(=O)Cc1cccs1)c1ccco1 | ? |
| COc1ccc(S(=O)(=O)Nc2ccc3oc(C)c(C(C)=O)c3c2)cc1 | -12% |
| COc1ccc(NC(=O)[C@H](NC(=O)[C@@H]2Cc3ccccc3CN2)c2ccccc2)cc1 | -1% |
| COc1ccccc1CNC(=O)CCC1N=C2c3ccccc3N=C(SCC(N)=O)N2C1=O (centres undefined) | -1% |
| C[C@]12CCC(=O)C[C@@H]1CC[C@@H]1[C@@H]2CC[C@]2(C)C=CC[C@@H]12 | -18%&-1% |
| CCOc1cc(/C=N/NC(=O)CCn2nc(C)cc2C)ccc1O | 1% |
| CN(C)c1nc(NCc2ccccc2)nc(N/N=C/c2ccc(Cl)cc2Cl)n1 | -5% |
| CC(=O)c1cccc(OCC(=O)N2CCN(c3ccc(C(F)(F)F)cn3)CC2)c1 | -11% |
| COC(=O)C1=C(C)Nc2sc(C(N)=O)c(N)c2C1c1ccncc1 (centres undefined) | -8% |
| O=C(/C=C/c1ccccc1)N(Cc1cccs1)C1CCS(=O)(=O)C1 (centres undefined) | 18% |
| CC1CN(C(=O)N2CCC(C(=O)N3CCN(c4ccccc4)CC3)CC2)c2cc(Cl)ccc2O1 (centres undefined) | 12% |
| COc1ccc(CNC(=O)c2cnc3sc(N4CCOCC4)nn3c2=O)cc1 | 4% |
| CCCCN(C)CCn1c(=S)[nH]c2cc(OCC)c(OCC)cc2c1=O | -8% |
| CCC(=O)NC(Cc1ccccc1)c1nc2ccccc2[nH]1 (centres undefined) | -5% |

4 of the entries above in order of the VDR inh value, low to high.
Molecule,VDR inh
COc1ccc(C(=O)NCCN2CCCC2)cc1[N+](=O)[O-],-4%
O=C(Nc1ccc2c(c1)OCO2)N1CCN(c2ncc(C(F)(F)F)cc2Cl)CC1,-1%
COc1ccc(CNC(=O)c2cnc3sc(N4CCOCC4)nn3c2=O)cc1,4%
CN1CCN(Cc2c(O)ccc3c(=O)c(Oc4ccccc4Cl)c(C(F)(F)F)oc23)CC1,7%

The list continues:
| SMILES | VDR inh |
| --- | --- |
| COc1ccc(NC(=O)N(C)C[C@H]2Oc3c(NS(=O)(=O)c4ccc(OC)cc4)cccc3C(=O)N([C@H](C)CO)C[C@@H]2C)cc1 | -1% |
| CCc1cc([N+](=O)[O-])cc(CC)c1N | 5% |
| O=C(Cn1cc(COc2cccc([N+](=O)[O-])c2)nn1)c1ccc(O)cc1 | -1% |
| CCOc1c(C=C(C#N)C#N)c2ccccc2n1CC | ? |
| Cc1ccc(N2CCN(S(=O)(=O)c3c(C)noc3C)CC2C)cc1 (centres undefined) | -12% |
| CSc1ccc(CCNS(=O)(=O)c2csc(C(N)=O)c2)cc1 | -11% |
| Cc1cccc(C)c1NC(=O)CSc1nc(-c2ccco2)cc(C(F)(F)F)n1 | 8% |
| CC(=O)N1CCCC1c1nc2ccccc2n1Cc1ccccc1 (centres undefined) | -1% |
| Cc1nn(-c2ccccc2)c(C)c1C(=O)OCc1ccc(C#N)cc1 | 8% |
| Cc1noc(C)c1NC(=O)N(C)C[C@H]1Oc2ccc(NC(=O)NC(C)C)cc2C(=O)N([C@H](C)CO)C[C@@H]1C | -12% |
| Cc1ccc(CONC(=O)c2ccc(OC(F)F)cc2)cc1 | -20% |
| Cc1cc(C)n2ncc(C(=O)NC3CCCCC3)c2n1 | 4% |
| C=CCOC(=O)Nc1c(C(=O)OC)[nH]c2ccccc12 | 6% |
| CCOC(=O)C1(CCCc2ccccc2)CCN(C(=O)CCc2cnn(C)c2)CC1 | 11% |
| COc1cccc(C(=O)Nc2ccc3c(c2)C(=O)N(CC2CCCO2)C3=O)c1 (centres undefined) | -5% |
| COc1ccc(C(=O)Nc2ccccc2)cc1S(=O)(=O)NCc1ccco1 | -14% |
| O=C(Nc1ccc(Cl)cc1)C(c1ccccc1)N1CCOCC1 (centres undefined) | 7% |
| Cc1cc(=O)oc2c1c(C)nn2-c1ccc(Cl)cc1 | -11% |
| C=CC[C@@](C(C)=O)(C(=O)OC)C(NC(=O)OC)c1ccccc1 (some centres undefined) | 6% |
| Cc1nn(Cc2ccc(Cl)cc2Cl)c(C)c1NC(=O)CCl | -8% |
| CC(C)c1ccc(CNc2nc(-c3ccco3)nn2S(=O)(=O)c2ccc(F)cc2)cc1 | 7% |
| Cc1cccc(-n2cc(CNCCc3nc(C)cc(C)n3)c(-c3cccc(F)c3)n2)c1 | -5% |
| COc1ccc(CCNC(=O)c2ccc(Cn3c(SCc4ccccc4)nc4cccnc43)cc2)cc1 | 8% |
| CC[C@H](C)[C@H](NC(N)=O)C(=O)Nc1ccc(OC)c(Cl)c1 | -6% |
| COc1ccccc1CNC(=O)CCNS(=O)(=O)c1ccc2[nH]c(=O)oc2c1 | -16% |
| CCCN(CCC)C[C@@H]1CCCCN1CCNC(=O)N1c2ccccc2C(=O)Nc2cccnc21 | 4% |
| CC1=NN(c2ccc(C(=O)O)cc2)C(=O)CC1 | 9% |
| CCOC(=O)COc1cc2c3c(c(=O)oc2cc1C)CCCC3 | -11% |
| COc1ccc(NC(=O)C2CCC(C(C)(C)C)CC2)cc1S(=O)(=O)N1CCCCC1 (centres undefined) | 1% |
| CCOC(=O)c1c(NC(=O)CSc2nnnn2C)sc(C(=O)N(C)C)c1C | 9% |

Three entries from above, ordered by formula weight, highest first:
| SMILES | VDR inh |
| --- | --- |
| COc1ccccc1CNC(=O)CCNS(=O)(=O)c1ccc2[nH]c(=O)oc2c1 | -16% |
| CSc1ccc(CCNS(=O)(=O)c2csc(C(N)=O)c2)cc1 | -11% |
| Cc1cc(=O)oc2c1c(C)nn2-c1ccc(Cl)cc1 | -11% |

Following part
| SMILES | VDR inh |
| --- | --- |
| Cc1ccc(OCc2cc(C(=O)N3CCC(Oc4cccnc4)CC3)no2)cc1C | -23% |
| COc1ccc(S(=O)(=O)Nc2ccc(Oc3ncccn3)c(Cl)c2)cc1 | -23% |
| COc1cc(-c2nc(-c3ccccc3)c(-c3ccc(F)cc3)[nH]2)cc2c1OCO2 | -5% |
| COc1cc(OC)cc(C(=O)Nc2nnc(SCC(=O)NCc3ccco3)s2)c1 | 4% |
| Cc1cc(C(=O)Nc2cccc3c2O[C@@H](CN(C)S(=O)(=O)c2ccccc2)[C@H](C)CN([C@@H](C)CO)C3=O)n(C)n1 | -20% |
| CCCN1CCN(CCCNC(=O)Cn2c(-c3cccs3)cc3cc(Cl)ccc32)CC1 | 11% |
| Cc1cc(C(C)(C)C)oc1C(=O)N(CC(=O)NC1CCCC1)c1cccc(C(F)(F)F)c1 | 8% |
| Cc1ccc(S(=O)(=O)N2C[C@@H]3CCCC[C@@H]3[C@@H](C)[C@H]2c2cn(Cc3ccccc3)c3ccccc23)cc1 | -9% |
| COc1ccc(OC)c(C(=O)COC(=O)c2cccnc2Cl)c1 | 5% |
| Cc1cc2cc(CCNC(=O)CCc3ccccc3)c(=O)[nH]c2cc1C | ? |
| CC(C)(C)C1CCc2c(sc(NC(=O)c3ccccc3F)c2C(=O)N2CCCCC2)C1 (centres undefined) | -2% |
| O=C1OCCC1Sc1nnc(-c2ccc(Cl)cc2)n1Cc1ccccc1 (centres undefined) | -11% |
| O=C(O)CCC(=O)Nc1ccc(C(=O)OC2CCCCC2)cc1 | -8% |
| CCOCCCNS(=O)(=O)Cc1ccccc1 | 25% |
| CCOC(CCn1c(SCC(=O)Nc2cc(C)on2)nc2ccccc2c1=O)OCC | 21% |
| COc1ccccc1CNN | ? |
| Cc1ccc(NC(=O)C2=CCN(S(=O)(=O)c3ccc(F)cc3)CC2)c(C)c1 | -4% |
| COc1ccc(S(=O)(=O)Cc2ccc(C(=O)NCCCN(C)c3ccccc3)o2)cc1 | 8% |
| CC1CCN(c2nn3c(=O)c(C(=O)NCc4ccc(Cl)cc4)cnc3s2)CC1 | 7% |
| COc1ccc(OC)c(NC(=O)Cn2c(C)nc3ccccc3c2=O)c1 | -7% |
| O=C(NC(=O)c1c(F)cccc1F)O/N=C1\CCCc2occc21 | -22% |
| CCCCCCC1C(C#N)=C(N)OC2=C1C(=O)CCC2 (centres undefined) | -15% |
| Cc1ccc(C)c(NC(=O)N2CCN3CCCCC3C2)c1 (centres undefined) | 12% |
| CC#CCN(CC#CC)S(=O)(=O)c1ccc(-n2cnnn2)c(OC)c1 | -17% |
| Fc1cccc(NC(=S)NCCc2ccccc2)c1 | -18% |
| Cc1nc2ccc(S(=O)(=O)NCC(=O)N3CCCCC3)cc2s1 | 10% |
| O=C(Nc1cccc(Cl)c1)Nc1cc(S(=O)(=O)N2CCCCC2)ccc1Cl | -19% |

For convenience, some entries already given:
| SMILES | VDR inh |
| --- | --- |
| Cc1ccc(OCc2cc(C(=O)N3CCC(Oc4cccnc4)CC3)no2)cc1C | -23% |
| COc1ccc(S(=O)(=O)Nc2ccc(Oc3ncccn3)c(Cl)c2)cc1 | -23% |

Source: PubChem
